LASV entry inh = inhibitors of Lassa virus binding or cell entry; Lassa virus pseudotype entry inhibition, cell reporter; control for the full effect not named in the record; Potency, µM (top dose mostly 37.9 µM), inactives show at the highest dose activity change, negative = inhibition, actives largely listed as inhibitors; 1.2% of 300,000 active; active means well fitted inhibition curve with a large enough effect; inconclusive means small, poorly fitted or top-dose-only effect, or effect the other way; inactive means flat fitted curve, though single readings scatter; tested in HEK293 cells; note: % is set by controls: 0 for no effect and ±100 for the full control effect; nearly all actives have a fitted effect of over 50% in size; luciferase read-out
Cruzain Triton = cruzain (T. cruzi) inhibition with detergent. P25779. purified cruzain, Z-FR-AMC fluorescence, 0.01% Triton. Potency, µM, inactives show max response, negative = inhibition, actives largely listed as inhibitors. 0.43% of 200,000 active; active = well fitted curve in the direction sought with a large enough effect; inconclusive = small, poorly fitted or top-dose-only effect, or another doubt; inactive = no such curve, though single readings can be large; an effect the other way counts as inactive or inconclusive;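 note: plate controls were neutral wells for no effect and buffer without enzyme for full effect; nearly all actives have a fitted effect of over 40% in size; top concentration of the series not given in the record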
Target sequence (P25779 123-467 limits assumed): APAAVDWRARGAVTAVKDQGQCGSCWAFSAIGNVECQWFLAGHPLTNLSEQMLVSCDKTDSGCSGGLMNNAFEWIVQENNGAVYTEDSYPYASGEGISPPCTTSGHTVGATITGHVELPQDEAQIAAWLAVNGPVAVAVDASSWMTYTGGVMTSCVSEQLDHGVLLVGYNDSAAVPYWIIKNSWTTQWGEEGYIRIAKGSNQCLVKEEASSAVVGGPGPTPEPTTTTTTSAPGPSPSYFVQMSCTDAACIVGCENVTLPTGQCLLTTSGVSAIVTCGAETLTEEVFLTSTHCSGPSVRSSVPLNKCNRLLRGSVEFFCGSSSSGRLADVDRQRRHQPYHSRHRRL
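Enzyme 1.5 nM, Z-FR-AMC 2 uM, NaOAc 100 mM pH 5.5, DTT 5 mM, Triton X-100 0.01%; 15 min RT compound preincubation; kinetic ex360/em450, 60 s delta.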
RE007 growth inh = less growth of the S. pombe RE007 Vpr strain; S. pombe RE007 Vpr strain, BacTiter-Glo ATP luminescence, 24 h; control for the full effect not named in the record; Potency, µM (doses to about 92.2 µM), for the others: at the highest dose activity change, negative = less growth; 0.21% of 360,000 active; AID 651644; active = well fitted falling curve with a large enough effect; inconclusive = small, poorly fitted or top-dose-only effect; inactive = no such curve, though single readings can be large or run the other way;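 note: % is set by controls: 0 for no effect and ±100 for the full control effect; nearly all actives have a fitted effect of over 50% in size; the assay follows cell death caused by Vpr and the record does not say whether a fall means rescue or toxicity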
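Fission yeast strain RE007, carrying one chromosomally integrated HIV-1 vpr copy, was seeded at OD 0.01 in PMG+AL medium with 23 nL pinned compound. After 24 h at 30 °C and 99% humidity, viability was read by BacTiter-Glo luminescence.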
NS1 function inh = blocks influenza NS1 protein function. S. cerevisiae slowed by influenza A NS1, growth recovery by OD600. Potency, µM (doses to about 46.1 µM), for inactives: at the highest dose activity, positive = more growth. 0.4% of 270,000 active. AID 2326; note: actives are rising curves; nearly all actives have a fitted effect of over 50% in size
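In this qHTS, NS1 from influenza A is expressed in budding yeast, where it slows growth. Cells are switched from glucose to 2% galactose medium (pH 6.0, -URA), treated with compound, and growth recovery is read at OD600.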
SARS PLpro yeast = inhibitors of SARS-CoV papain-like protease in yeast; S. cerevisiae expressing SARS-CoV PLpro, growth rescue; control for the full effect not named in the record; Potency, µM (series often up to 32.9 µM), inactives show at the highest dose activity, positive = growth rescue; 0.19% of 330,000 active; AID 485353; note: 0% is about no effect; nearly all actives have a fitted effect of over 55% in size; growth read by luminescence after 48 h
Marburg entry inh = blocks Marburg virus binding to or entry into cells. Potency, µM (doses to about 37.8 µM), for inactives: at the highest dose activity change, negative = inhibition, most hits filed as inhibitors. Marburg virus pseudotyped entry inhibition, cell reporter; control for the full effect not named in the record; about a third of the inactives were read at about 46 µM. 1.8% of 300,000 active; active = well fitted inhibition curve with a large enough effect; inconclusive = small, poorly fitted or top-dose-only effect, or effect the other way; inactive = flat fitted curve, though single readings scatter; tested in HEK293 cells; about a fifth of its hits are not listed in these tables; note: % is set by controls: 0 for no effect and ±100 for the full control effect; luciferase read-out
StopGo reporter = FMDV 2A StopGo reporter, luciferase signal; 1.2% of 410,000 active; human cells with a luciferase reporter of 2A StopGo recoding; control for the full effect not named in the record; Potency, µM (top dose mostly 57.9 µM), for inactives: at the top dose signal change, negative = less light; active = well fitted falling curve with a large enough effect; inconclusive = small, poorly fitted or top-dose-only effect; inactive = no such curve, though single readings can be large or run the other way; tested in HEK293T cells; note: % is set by controls: 0 for no effect and ±100 for the full control effect; nearly all actives have a fitted effect of over 45% in size; luciferase light after 4 h
Cruzain noTriton = cruzain (T. cruzi) inhibition without detergent; P25779; Potency, µM, inactives show max response, negative = inhibition, usual class: inhibitors; purified cruzain, Z-FR-AMC fluorescence, no detergent; 2.3% of 200,000 active; active = well fitted curve in the direction sought with a large enough effect; inconclusive = small, poorly fitted or top-dose-only effect, or another doubt; inactive = no such curve, though single readings can be large; an effect the other way counts as inactive or inconclusive;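 note: plate controls were enzyme without inhibitor for no effect and buffer without enzyme for full effect; nearly all actives have a fitted effect of over 40% in size; top concentration of the series not given in the record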
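Purified cruzain at 1.5 nM, pre-incubated 15 min with compound at room temperature in 100 mM sodium acetate pH 5.5, 5 mM DTT, 0.00005% Triton X-100. Reaction started with 2 uM Z-FR-AMC; AMC fluorescence increase over 60 s gives rate.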
* = called active by the depositor; ? = inconclusive; nt = no result given; & = joins results of further samples; [ ] = dose if it differs, or a comment. Unless noted, calls come from the whole dose curve; as a rule, active means well fitted rising curve with a large enough effect; inconclusive means small, poorly fitted or top-dose-only effect; inactive means no such curve, though single readings can be large or run the other way. Potency is the fitted concentration of half-maximal effect.

SMILES	LASV entry inh	Cruzain Triton	RE007 growth inh	NS1 function inh	SARS PLpro yeast	Marburg entry inh	StopGo reporter	Cruzain noTriton
CC(=O)NN1C(=O)/C(=C\c2ccc(Cl)cc2)SC1=S	-10%	nt	19%	5%	0%	9%[46.1 µM]	-3%	nt
Cc1ccc(-n2c(=S)[nH]c3[nH]ncc3c2=O)cc1	5%	nt	4%	nt	7%	1%	8%	nt
CN(C)S(=O)(=O)c1ccc(NC(=O)CN2CCCC2c2ccc3c(c2)OCCCO3)cc1 (stereo not given)	?	nt	10%	nt	-6%	3%	-24%	nt
Cc1ccc(C)c(OCC(=O)Nc2ccccc2C(=O)NC2CC2)c1	-1%[46.1 µM]	nt	1%	-10%	-6%	-1%[46.1 µM]	-1%	nt
Oc1ccccc1C1=NCCNC(C(F)(F)C(F)F)=C1	?	-3.1%	-4%	3%	?	1%	11%	-5%
N/C(CC(=O)Nc1cc(C(F)(F)F)ccc1Cl)=N\O	nt	0.2%	nt	0%&2%	2%	nt	-11%	-3%
CCCCn1c(N)c(N(CC(C)C)C(=O)c2ccc(-c3ccc(C(C)=O)cc3)o2)c(=O)[nH]c1=O	10%	nt	9%	nt	1%	17%	12%	nt
CCCCCCCCCn1c2c(c(=N)c3c1CCC3)CCC2	1.4µM*	-2.0%	?	-39%	-124%	?	5.6µM*	7%
CC(C)Cc1ccccc1S(N)(=O)=O	nt	nt	-7%	-14%	6%	nt	14%	nt
N#Cc1cccc(NC(=O)C2CCN(c3cnccn3)CC2)c1	-8%[46.1 µM]	3.0%	nt	nt	nt	?	-19%	10%
COc1cccc(-c2ccc3c(N)c(C(=O)Nc4ccc(Cl)cc4F)sc3n2)c1	?	-7.2%	nt	nt	nt	21%[46.1 µM]	19%	?
Cc1cc(NC(=O)c2ccc3c(c2)OCCO3)ccc1NC(=O)c1cc2ccccc2o1	nt	nt	12%	-1%	0%	nt	-27%	nt
Cc1ccc[n+](-c2nc3ccccc3nc2[N-]S(=O)(=O)c2ccccc2)c1	0%	nt	4%	-2%	-5%	5%	67%[activator]	nt
Cc1occc1C(=O)Nc1ccc(OCc2ccccc2)cc1	-18%	nt	?	-1%	0%	?	8%	nt
CCOC(=O)c1c(C)nc(C)c(C(=O)OCC)c1-c1cccc(N)c1	?	nt	12%	2%	0%	?	-6%	nt
CC(=O)Nc1ccc(OS(=O)(=O)c2c(C)cc(C)cc2C)cc1	nt	nt	-17%	-44%	-2%	nt	?	nt
CC1=C(C(=O)OCc2ccccc2)C(c2cccc(Cl)c2Cl)NC(=O)N1CCCCCC(=O)O (stereo not given)	nt	nt	0%	3%	-2%	nt	-17%	nt
Cc1ccc(S(=O)(=O)N2Cc3ccccc3CC2C(=O)Nc2ccc3c(c2)OCO3)cc1 (stereo not given)	14%	-2.7%	5%	-4%	6%	-14%[46.1 µM]	44%[activator]	?
c1ccc(COc2cccc(CN3CCN(c4ccccn4)CC3)c2)cc1	-25%[14.3 µM]	-1.6%	-2%	-31%	nt	-8%	-23%	11%
COCCNC(=O)NC12CC3(C)CC(C)(CC(C)(C3)C1)C2	-19%[46.1 µM]	nt	17%	-2%	0%	?	-10%	nt
Cc1ccc2c(=O)c(C(=O)c3ccc(F)cc3)cn(CC(=O)NC3CCCCC3)c2n1	11%[46.1 µM]	2.1%	nt	nt	nt	nt	-7%	5%
Cc1cc(NC(=O)COC(=O)CCNS(=O)(=O)c2c(Cl)cccc2Cl)no1	9%	nt	-5%	nt	3%	0%[46.1 µM]	-1%	nt
O=C(c1ccccc1Oc1ccc([N+](=O)[O-])cc1)N1CCOCC1	nt	nt	3%	7%	1%	nt	-21%	nt
Cc1ccc(C)c(CN2C(=O)c3ccccc3S(=O)c3ccc(C(=O)NCc4ccccc4)cc32)c1 (stereo not given)	-20%[46.1 µM]	-0.4%	nt	nt	nt	?	?	?
O=C(c1cccc(Cl)c1)N1CCN(CCc2ccccn2)CC1	6%[46.1 µM]	-0.8%	nt	nt	nt	4%[46.1 µM]	-6%	13%

2 consecutive records already listed:
SMILES	LASV entry inh	Cruzain Triton	RE007 growth inh	NS1 function inh	SARS PLpro yeast	Marburg entry inh	StopGo reporter	Cruzain noTriton
Cc1ccc(C)c(CN2C(=O)c3ccccc3S(=O)c3ccc(C(=O)NCc4ccccc4)cc32)c1 (stereo not given)	-20%[46.1 µM]	-0.4%	nt	nt	nt	?	?	?
O=C(c1cccc(Cl)c1)N1CCN(CCc2ccccn2)CC1	6%[46.1 µM]	-0.8%	nt	nt	nt	4%[46.1 µM]	-6%	13%

Six entries out of the list, sorted by count of non-hydrogen atoms, ascending:
SMILES	LASV entry inh	Cruzain Triton	RE007 growth inh	NS1 function inh	SARS PLpro yeast	Marburg entry inh	StopGo reporter	Cruzain noTriton
COCCNC(=O)NC12CC3(C)CC(C)(CC(C)(C3)C1)C2	-19%[46.1 µM]	nt	17%	-2%	0%	?	-10%	nt
CCCCCCCCCn1c2c(c(=N)c3c1CCC3)CCC2	1.4µM*	-2.0%	?	-39%	-124%	?	5.6µM*	7%
O=C(c1cccc(Cl)c1)N1CCN(CCc2ccccn2)CC1	6%[46.1 µM]	-0.8%	nt	nt	nt	4%[46.1 µM]	-6%	13%
O=C(c1ccccc1Oc1ccc([N+](=O)[O-])cc1)N1CCOCC1	nt	nt	3%	7%	1%	nt	-21%	nt
Cc1ccc(S(=O)(=O)N2Cc3ccccc3CC2C(=O)Nc2ccc3c(c2)OCO3)cc1 (stereo not given)	14%	-2.7%	5%	-4%	6%	-14%[46.1 µM]	44%[activator]	?
CCCCn1c(N)c(N(CC(C)C)C(=O)c2ccc(-c3ccc(C(C)=O)cc3)o2)c(=O)[nH]c1=O	10%	nt	9%	nt	1%	17%	12%	nt

Other entries follow.
SMILES	LASV entry inh	Cruzain Triton	RE007 growth inh	NS1 function inh	SARS PLpro yeast	Marburg entry inh	StopGo reporter	Cruzain noTriton
Cc1cc(C)c(C#N)c(SCc2ccccc2F)n1	4%	nt	-1%	-7%	-2%	11%[46.1 µM]	-7%	nt
Cc1ccc(-n2c(Cc3cccn3C)nnc2SCC(=O)Nc2ccc3c(c2)OCO3)cc1	-16%	-1.6%	7%	14%	1%	-2%&2%	0%	2%
CCOC(=O)c1c(N)nn(C(=O)C(C)C)c1-c1ccccc1	0%	1.6%	7%	-58%	-30%	2%	0%	-4%
COc1ccc(C(=O)NC2CC2)cc1OC1CCN(Cc2cnn(C)c2C)CC1	2%	nt	6%	4%	-4%	27%	-10%	nt
CC(C)C(=O)N1CCN(c2ccc(NC(=O)c3ccc(Br)o3)cc2)CC1	-14%	-4.7%	6%	-3%	0%	-16%	-16%	-9%
Cc1ccccc1N(CC(=O)N1CCc2ccccc2C1)S(C)(=O)=O	nt	nt	-5%	9%	0%	nt	-1%	nt
CC(=O)Oc1ccc(-c2cccc(C(=O)OCC(=O)N(C)c3ccccc3)c2)cc1	-28%	-10.0%	nt	-14%	-15%	-27%	?	0%
Cc1ccccc1NC(=O)CSC1=Nc2ccccc2C2=NC(Cc3ccccc3)C(=O)N12 (stereo not given)	-18%[46.1 µM]	-3.1%	nt	nt	nt	nt	-10%	-5%
Cc1ccc(N(Cc2cc3ccc(C)cc3[nH]c2=O)C(=O)c2cccs2)cc1	nt	nt	-3%	?	0%	nt	-25%	nt
Cc1nnsc1NC(=O)OCc1ccccc1Cl	-3%	-0.5%	0%	-57%	-6%	-29%	-26%	1%
CCN(CC)CCOC(=O)C1(c2ccc([N+](=O)[O-])cc2)CCCC1	nt	2.7%&0.9%	-12%	nt	nt	nt	0%&-6%&-4%	7%&-10%
C=C1CC(Cn2cc(Br)c(=O)[nH]c2=O)(c2ccc(-c3ccccc3)cc2)OC1=O (stereo not given)	?	nt	12%	nt	nt	?	?	nt
CN1CCN(S(=O)(=O)c2ccc3c(c2)CC(=O)N3C)CC1	nt	nt	-12%	2%	?	nt	-8%	nt
Cc1ccc(-c2nnc(Nc3ccc(F)cc3)c3ccccc23)cc1S(=O)(=O)N1CCN(C)CC1	?	-3.8%	nt	nt	nt	-23%[46.1 µM]	-20%	1%
CCOc1ccc2[nH]c(=O)c(CN(Cc3ccco3)C(=O)c3cccc(F)c3)cc2c1	-30%	-5.5%	0%	-4%	14%	-28%	-21%	-2%
CC(C)OCCCN1C=C2C(=O)C(C)(OC(=O)CCc3ccccc3)C(=O)C=C2C=C1c1ccc(C#N)cc1 (stereo not given)	nt	nt	-13%	5%	1%	nt	-20%	nt
CCOC(=O)COc1ccc(Br)cc1/C=C/c1[nH]c(=O)[nH]c(=O)c1[N+](=O)[O-]	?	nt	-12%	nt	1%	?	28µM*	nt
CCOP(=O)(C#CC(C)(C)C)C1(O)CCCCC1 (stereo not given)	-5%	7.1%	14%	-2%	1%	6%	33%[activator]	7%
O=C(O)CCCC(=O)NNc1nc(-c2ccccc2)c2cc(Cl)ccc2n1	nt	nt	13%	?	-2%	nt	6%	nt
Cc1ccc(OCCC(=O)Nc2ccc(S(=O)(=O)Nc3cc(C)nc(C)n3)cc2)cc1	?	nt	-18%	nt	1%	4%	45%[activator]	nt
Cc1ccc(C(=O)CN(C(=O)c2ccc(Cl)c(Cl)c2)N2C(=O)C3C4C=CC(C4)C3C2=O)cc1 (stereo not given)	?	-3.6%	-7%	19%	-25%	-2%	-3%	-6%
CCCCCc1n[nH]c2c1CCCC2	nt	nt	-16%	-2%	2%	nt	31%[activator]	nt

Assay outcomes deposited in PubChem by National Center for Advancing Translational Sciences (NCATS).

Compounds as they come (roughly 4.7% active in at least one column).
